ALR inh: inhibitors of human sulfhydryl oxidase ALR; P55789; purified ALR, DTT oxidation, H2O2 HRP-luminol luminescence; inhibition, % (no concentration beside the values); hit rate 3.8% among 290,000; AID 485317;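 active = mean and each replicate at 75% or more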;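 note: stock transfer was 7.5 nL into about 7.5 µL; 0% = neutral wells and 100% = wells with inactivated enzyme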
Target sequence (P55789 whole entry, looked up): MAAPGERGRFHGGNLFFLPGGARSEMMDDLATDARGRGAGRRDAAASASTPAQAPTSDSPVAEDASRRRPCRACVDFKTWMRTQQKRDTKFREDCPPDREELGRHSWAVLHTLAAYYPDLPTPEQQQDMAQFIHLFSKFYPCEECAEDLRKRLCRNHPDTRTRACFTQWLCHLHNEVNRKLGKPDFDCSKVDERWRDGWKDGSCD
UCH37 DUB inh: blocks the human deubiquitinase UCH37. Q9Y5K5. purified proteasome/UCH37, Ub-AMC cleavage fluorescence. inhibition, % (concentration not given with the values). hit rate 0.33% among 330,000. AID 588478;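 active = mean of two replicates above 20%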;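 note: 0% = compound-free wells with enzyme and 100% = wells lacking proteasome; stock transfer was 100 nL into about 20 µL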
Target sequence (Q9Y5K5 whole entry, looked up): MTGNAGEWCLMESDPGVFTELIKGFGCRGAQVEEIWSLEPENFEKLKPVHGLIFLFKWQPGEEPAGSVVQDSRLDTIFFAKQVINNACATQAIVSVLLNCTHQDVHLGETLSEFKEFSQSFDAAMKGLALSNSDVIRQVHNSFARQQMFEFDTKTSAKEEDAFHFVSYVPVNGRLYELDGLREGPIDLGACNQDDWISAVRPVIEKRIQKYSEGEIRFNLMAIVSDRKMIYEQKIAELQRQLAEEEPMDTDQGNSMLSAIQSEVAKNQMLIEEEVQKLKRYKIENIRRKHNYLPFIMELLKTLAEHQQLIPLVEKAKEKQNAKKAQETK
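Reagent: Ub-AMC substrate; assay system: Proteasome-associated human UCH37 deubiquitinase; controls: no-proteasome and no-compound wells; read-out: % inhibition of Ub-AMC cleavage fluorescence; timing: 30 min preincubation with enzyme, 25 min cleavage at room temperature; signal: AMC fluorescence from Ub-AMC cleavage, excitation 355 nm, emission 460 nm; buffer or medium: Tris-HCl pH 7.4 plus ovalbumin, ATP-MgCl2, DTT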
E coli growth: blocks Escherichia coli growth | OD600, 23 h; hits give low values | AID 1053175 | hit rate 0.21% among 330,000 | OD600 absorbance (concentration not given with the values);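 active = OD600 absorbance below the run mean of sample wells minus 3.6 SD, in any replicate, cut at about 0.56 in these data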;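 note: stock transfer was 300 nL into about 60 µL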
Ecoli rRNA inh: inhibits bacterial ribosomal RNA function over humanized ribosomes; E. coli WT GFP vs humanized-ribosome RFP mutants, fluorescence, 24 h; hits give low values; DMSO median 0, no signal -100; GFP signal change (wild-type ribosome), % (concentration not given with the values); hit rate 1.6% among 350,000; AID 720706;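 active = significant combined selectivity score with lowered wild-type GFP, culture density cut under 30%, mutant RFP and density less affected; inactive = any of these conditions unmet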; note: one replicate is shown; some compounds called inactive have numbers as strong as hits
B2AR ag: activates human beta-2 adrenergic receptor causing internalization | P07550 | Am2.2-beta2AR cells, FAP receptor internalization, flow cytometry; reference of the scale not given here | response, % (test concentration not listed) | hit rate 0.43% among 340,000 | AID 504454;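 active = response above a set limit, near 3 SD of response in nonfluorescent compounds, cut at about 42% in these data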;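 note: stock transfer was 100 nL into about 11 µL; a reference agonist was the positive control; negative values mostly stem from fluorescent compounds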
Target sequence (P07550 whole entry, looked up): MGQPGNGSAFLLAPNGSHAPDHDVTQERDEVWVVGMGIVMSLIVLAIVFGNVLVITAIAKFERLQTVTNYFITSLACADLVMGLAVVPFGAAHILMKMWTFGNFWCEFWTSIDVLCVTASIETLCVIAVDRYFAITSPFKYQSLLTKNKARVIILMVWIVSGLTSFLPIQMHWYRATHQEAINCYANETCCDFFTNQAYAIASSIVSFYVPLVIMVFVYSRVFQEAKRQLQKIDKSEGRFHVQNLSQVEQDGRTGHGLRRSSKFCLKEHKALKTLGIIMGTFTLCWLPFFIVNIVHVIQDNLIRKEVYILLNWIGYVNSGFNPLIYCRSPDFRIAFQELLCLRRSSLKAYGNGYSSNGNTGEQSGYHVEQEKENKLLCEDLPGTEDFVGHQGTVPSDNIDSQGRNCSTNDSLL
FGF22 binding: shifts melting point of recombinant human FGF22 | hit rate 1.5% among 340,000 | Q9HCT0 | recombinant FGF22 thermal shift, SYPRO orange fluorescence; percent of sucrose octasulfate shift, DMSO zero | calls only at 9.99 µM | AID 651658;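 active = melting point raised past a set limit in the mean and every replicate; three in four hits are not shown here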
HNF4A DNA FP: change in binding of human HNF4 alpha to DNA | HNF4a-FITC DNA binding, fluorescence polarization, 1 h | activity change, % at 10 µM | hit rate 0.3% among 360,000; in the data active = activity change above about 30%, passing the limit was not always enough;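 note: controls were the assay level and a saturating level of protein; the project sought stronger binding though the title names inhibitors; some compounds called inactive have numbers as strong as hits; positive values seem to mean higher polarization but the record does not say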
Ecoli rRNA inh OD600: second read-out of Ecoli rRNA inh, no call of its own (marks repeat the call); OD600 change, %; measured here: OD600 growth;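 optical density of the mix in the first replicate; 0 = DMSO median and -100 = no signal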
Ecoli rRNA inh RFP: second read-out of Ecoli rRNA inh, no call of its own (marks repeat the call); RFP signal change, %; measured here: RFP humanized mutant strains;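 first replicate; 0 = DMSO median and -100 = no signal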
Numbers without * were called inactive; i = inactive; . = not tested or not shown; + = active, no number; & = joins results of further samples. An excerpt; count on the stated rates, not on these rows.

SMILES	ALR inh	UCH37 DUB inh	E coli growth	Ecoli rRNA inh	Ecoli rRNA inh OD600	Ecoli rRNA inh RFP	B2AR ag	FGF22 binding	HNF4A DNA FP
CCN1C(=O)C(CC(=O)NCc2ccc(Cl)cc2)N(CC)C1=O (configuration not stated)	-3	1.5	0.66	11	12	-12	1	i	-3.3
COC(=O)c1ccc(NC(=O)CN2CCN(c3ccccn3)CC2)cc1	12	2.9	0.7	14	9	0.4	-3	i	-3.0
CCN1/C(=C/C=C/C=C/C=C/c2sc3ccccc3[n+]2CC)Sc2ccccc21	12	54*	0.85	8	9	31	-6	i	60*
Cc1ccsc1C(=O)NNC(=O)c1ccc(NS(=O)(=O)c2cccs2)cc1	.	.	.	8	-2	-0.6	-1	+	-2.8
CC1CN(C2CCN(C(=O)c3ccccc3)CC2)CC(C)O1 (configuration not stated)	-8	2.3	0.65	.	.	.	8	.	-1.2
CC(=O)c1ccc(-c2ccc(-c3cc(=O)oc4c(C(C)C)ccc(C)c34)cc2)cc1	.	1.4	0.74	8	17	-3.7	2	i	4.3
CCNC(=S)Nc1ccc(C)c(Cl)c1	-5	-1.3	0.66	0	2	-1.8	4	i	-0.8
O=S(=O)(c1ccc(Br)cc1)N1CCN(c2ccccc2)CC1	-7	2.0	0.73	11	6	3.7	-9	i	-4.3
O=C(c1ccc(C#CC2(O)CCCCC2)cc1)N1CCN(C(c2ccccc2)c2ccccc2)CC1	1	0.8	0.77	.	.	.	1	.	0.3
COc1ccc(CCNC(=O)CCCn2c(=O)c3cccn3c3cccnc32)c(OC)c1OC	1	-3.9	0.69	10	12	1.2	-10	i	1.6
Cc1c(NS(=O)(=O)c2cc(C(=O)NC(C)c3ccccc3)ccc2Cl)c(=O)n(-c2ccccc2)n1C (configuration not stated)	.	-0.3	0.69	3	2	0.8	-9	i	1.4
CCCSc1nnc2n(N)c(=O)c3ccccc3n12	-3	1.5	0.67	.	.	.	-6	.	0.4
CC(=O)N1CCN(C(=O)c2cccc(S(=O)(=O)Nc3c(C)n(C)n(-c4ccccc4)c3=O)c2)CC1	.	-0.5	0.67	8	12	-2.5	-5	i	1.4
CCNC(=S)NNC(=O)c1ccc(S(=O)(=O)NCc2ccco2)cc1	30	3.4	0.62	.	.	.	6	i	-0.4
COC(=O)c1ccc2c(=O)n(C3CCCCC3)c(SCC#N)nc2c1	8	3.5	0.71	.	.	.	10	.	-2.5
CCNc1nc(ON=C(C)C)nc(N(C)C)n1	-2	-2.0	0.66	0	-7	-3.6	0	i	-0.3
CC(C)OC(=O)c1cc2c(ccn2C)n1CC(=O)N(Cc1ccccc1)c1ccccc1	-8	-0.8	0.71	-5	0	1.9	5	i	-1.9
COC(=O)c1ccc(NC(=O)c2cccc(OC)c2)cc1	0	1.0	0.68	.	.	.	7	.	-2.9
CCOc1cccc(N2C(=O)CC(N3CCC(C(N)=O)(N4CCCCC4)CC3)C2=O)c1 (configuration not stated)	-1	-1.8	0.68	.	.	.	3	.	-2.2
CCC(C)(C)NC(=O)C(c1ccc(O)cc1)N(C(=O)Cn1nnc2ccccc21)c1ccc(NC(C)=O)cc1 (configuration not stated)	-1	0.1	0.69	8	6	-3.9	6	i	6.3

9 entries from above, with two lines to a compound.
Values in the order: ALR inh, UCH37 DUB inh, E coli growth, Ecoli rRNA inh, Ecoli rRNA inh OD600, Ecoli rRNA inh RFP, B2AR ag, FGF22 binding, HNF4A DNA FP
- CCCSc1nnc2n(N)c(=O)c3ccccc3n12
    -3, 1.5, 0.67, ., ., ., -6, ., 0.4
- CC(=O)N1CCN(C(=O)c2cccc(S(=O)(=O)Nc3c(C)n(C)n(-c4ccccc4)c3=O)c2)CC1
    ., -0.5, 0.67, 8, 12, -2.5, -5, i, 1.4
- CCNC(=S)NNC(=O)c1ccc(S(=O)(=O)NCc2ccco2)cc1
    30, 3.4, 0.62, ., ., ., 6, i, -0.4
- COC(=O)c1ccc2c(=O)n(C3CCCCC3)c(SCC#N)nc2c1
    8, 3.5, 0.71, ., ., ., 10, ., -2.5
- CCNc1nc(ON=C(C)C)nc(N(C)C)n1
    -2, -2.0, 0.66, 0, -7, -3.6, 0, i, -0.3
- CC(C)OC(=O)c1cc2c(ccn2C)n1CC(=O)N(Cc1ccccc1)c1ccccc1
    -8, -0.8, 0.71, -5, 0, 1.9, 5, i, -1.9
- COC(=O)c1ccc(NC(=O)c2cccc(OC)c2)cc1
    0, 1.0, 0.68, ., ., ., 7, ., -2.9
- CCOc1cccc(N2C(=O)CC(N3CCC(C(N)=O)(N4CCCCC4)CC3)C2=O)c1 (configuration not stated)
    -1, -1.8, 0.68, ., ., ., 3, ., -2.2
- CCC(C)(C)NC(=O)C(c1ccc(O)cc1)N(C(=O)Cn1nnc2ccccc21)c1ccc(NC(C)=O)cc1 (configuration not stated)
    -1, 0.1, 0.69, 8, 6, -3.9, 6, i, 6.3

Next section.
SMILES	ALR inh	UCH37 DUB inh	E coli growth	Ecoli rRNA inh	Ecoli rRNA inh OD600	Ecoli rRNA inh RFP	B2AR ag	FGF22 binding	HNF4A DNA FP
COc1cc(/C=N/NS(=O)(=O)c2ccc(C(C)(C)C)cc2)cc([N+](=O)[O-])c1O	65	.	.	-36*	-20*	-5.0*	2	i	-2.1
C[C@H]1CN([C@@H](C)CO)C(=O)c2cccc(NC(=O)c3ccc(-c4nccs4)cc3)c2O[C@@H]1CN(C)C(=O)NC1CCCCC1	-3	4.9	.	-2&-7	-3&-2	0.3&0.8	-13	i	3.4
COc1cccc(Oc2ncnc(N)c2[N+](=O)[O-])c1	1	4.5	0.63	14	16	0.0	-5	i	3.2
CC(C)C(=O)Nc1nnc(SCc2cccc(F)c2)s1	.	2.4	0.66	-39	-44	-12	0	i	-2.9
COc1ccc(NS(=O)(=O)c2ccc(Oc3ncccn3)cc2)cc1	2	3.2	0.77	.	.	.	6	.	0.0
CCc1nnc(NS(=O)(=O)c2ccc(N)cc2)s1	2	1.3	0.63	.	.	.	11	i	-2.2
CCOc1cc(CNCCSc2nnnn2C)cc(Br)c1OCc1ccc(F)cc1	-13	-0.7	0.62	-51	-44	-15	19	i	-3.8
Cn1nccc1C(=O)N1CCCC(C(=O)c2cccc3ccccc23)C1 (configuration not stated)	-5	2.6	0.71	5	2	-0.7	0	i	0.5
Cc1ccc([N+](=O)[O-])c(NC2OC(CO)C(O)C2O)c1 (configuration not stated)	-25	4.0	0.7	9	10	-4.9	2	i	3.2
COc1ccc(CN(CC(=O)NCC2CCCO2)C(=O)CCC(=O)Nc2cc(C)on2)cc1 (configuration not stated)	-4	0.7	0.73	.	.	.	-3	.	0.2
Oc1[nH]c(=S)sc1C=C1N=c2ccccc2=N1	6	12	0.67	-19	-3	9.1	-95	i	11
CCOc1cc(S(=O)(=O)n2cc(-c3ccc(F)cc3)c(N)n2)cc(OCC)c1OCC	-2	6.0	0.77	.	.	.	2	.	0.0
O=C(c1ccc(Cl)c(S(=O)(=O)N2CCCCC2)c1)N1CCCC(C(F)(F)F)C1 (configuration not stated)	-4	0.6	0.62	.	.	.	-1	i	-0.7
Clc1ccc2oc(SCc3cccnc3)nc2c1	-2	2.3	0.65	-20	-29	-4.4	6	i	-0.5
CCCCNS(=O)(=O)C1CCS(=O)(=O)C1 (configuration not stated)	-4	-4.5	0.7	5	13	0.3	-7	.	3.5
Cc1cc(F)ccc1NS(=O)(=O)c1c(C)nc2scc(C)n2c1=O	-10	-4.5	0.68	-1	-15	1.8	18	i	-1.2
CCC(C)N1CCC2(CC1)N=c1c(c3c4c5c(C)c(O)c3c(O)c1=NC(=O)C(C)=CC=C[C@H](C)[C@H](O)[C@@H](C)[C@@H](O)[C@@H](C)[C@H](OC(C)=O)[C@H](C)[C@@H](OC)C=CO[C@@](C)(O5)C4=O)N2 (some centres not stated)	-25	3.2	.	.	.	.	2	i	2.7
O=[N+]([O-])c1ccc(-c2nnc3cccc(Cl)n23)cc1	-1	2.3	0.72	4	17	-2.4	1	i	-0.6
CC(Oc1ccc(Cl)cc1)C(=O)N1CCCc2ccccc21 (configuration not stated)	0	2.8	0.65	-27	-45	-8.2	6	i	-2.7
O=C(O)c1ccccc1NCCO	3	-233	0.66	22	22	1.0	1	i	-3.7
C#Cc1ccc([C@@H]2C=C(C(=O)O)O[C@H](OCc3ccc(CO)cc3)C2)cc1	28	1.2	.	-3	4	-2.2	8	i	-7.5
CCOC(=O)C1CCCN(C(=O)CNC(=O)c2ccc(Br)o2)C1 (configuration not stated)	.	0.0	0.68	3	4	-0.6	4	i	-3.1
CC(=O)Oc1ccc(Cn2c(C)c(C(=O)N(C)Cc3ccc(F)cc3)sc2=O)cc1	.	.	.	-6	-8	-4.7	.	i	2.1
O=c1c2c(ncn1Cc1ccccc1)nc1n2CCC1	-11	0.7	0.69	-5	-1	-0.6	4	i	0.1
O=C(NCCc1ccccc1)C1CCCN(C(=O)NC2CCCCC2)C1 (configuration not stated)	0	2.8	0.68	.	.	.	2	.	2.1
Cc1ccc(S(=O)(=O)N2CCC(N3CCC(C)CC3)CC2)cc1	-8	.	.	23	17	3.7	-5	i	-0.8
CCCCc1ccc(NC(=S)NCCO)cc1	-11	-0.2	0.7	10	3	1.4	-4	i	1.4
COc1cc(/C=C(/C#N)C(=O)Nc2ccccc2)ccc1OCc1ccc(C(=O)O)cc1	-5	5.1	0.66	0	3	-1.3	5	i	-1.5
CCCC(=O)Nc1ccc(C(=O)N/N=C2\CC(=O)CC(C)(C)C2)cc1	16	.	.	.	.	.	5	.	3.3
CCOc1cc(CNCCO)cc(Br)c1OCc1ccccc1Cl	-4	8.1	0.62	.	.	.	31	.	3.2
O=C(OCC(=O)N1CCCc2ccccc21)c1cccc(S(=O)(=O)N2CCOCC2)c1	0	1.0	0.7	9	3	2.3	-6	i	-6.6
CCOC(=O)c1ccc(N=c2sc(C(=O)OC)cc(=O)n2Cc2ccc3c(c2)OCO3)cc1	-10	0.0	0.82	5	10	-1.5	27	i	1.2
Cc1nnsc1C(=O)NNS(=O)(=O)c1ccccc1	64	3.8	0.75	.	.	.	4	.	-0.3
Cc1ccccc1Oc1nc2c(C)cccn2c(=O)c1/C=C(\C#N)C(=O)NC1CCS(=O)(=O)C1 (configuration not stated)	6	-16	0.67	2	7	12	3	.	0.2
COC(=O)C1C(O)=C(C=Nc2cccc3ccccc23)C(=O)CC1(C)C (configuration not stated)	46	-30	0.65	-4	-8	2.9	-3	i	-2.3
O=C(Cn1c(=O)c2cccn2c2ccc(F)cc21)N1CCN(c2ccc(F)cc2)CC1	5	-4.4	0.66	11	13	0.6	-7	i	-2.4
CCOC(=O)c1[nH]cnc1C(=O)O	5	1.4	0.74	.	.	.	-4	.	-3.5
CC1CCN(C(=O)C2CCCN(c3ncnc4c3nc3n4CCCCC3)C2)CC1 (configuration not stated)	-7	-0.9	0.7	-6	-6	0.4	1	i	1.3
CCC/C=C/c1ccc(CN2C(C)C(=O)N(Cc3cn(CC4CCCCC4)nn3)CCS2(=O)=O)cc1 (configuration not stated)	.	.	.	8	10	9.8	.	i	-5.9
COc1ccc(CCNC(=O)c2cccnc2SC)cc1	.	0.8	0.69	4	4	7.6	1	i	-0.6
COC(=O)[C@@]1(Cc2ccc(F)cc2)[C@H]2c3cc(C(=O)N(C)C)n(Cc4nc5ccccc5[nH]4)c3C[C@H]2CN1C(=O)c1ccccc1	.	-6.4	.	3	25	7.4	.	i	.
